Assay outcomes deposited in PubChem BioAssay by Fisher Drug Discovery Resource Center.
NPYLR7 ag: mosquito NPYLR7 agonism. HEK293T NPYLR7/Galpha15, GCaMP6s calcium fluorescence. activation, % at 10 µM. 270,000 tested, 0.15% active. AID 1259423; in the data active = activation above about 40%;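 also: 0% = vehicle and 100% = reference agonist at the receptor; some compounds past the cut are filed as inactive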
NPYLR7 ag max-min: further read-out of NPYLR7 ag, marked with its call; activation, %; measured here: Max-Min RFU normalised activation; some inactives read as strong as hits;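 span of the calcium signal over five minutes; 0% = vehicle and 100% = native peptide agonist; compound fluorescence can raise it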
* hit, by the source's call; & = joins results of further samples. An excerpt; rates above refer to the full screens.

1. CCc1noc(CN(C)S(=O)(=O)c2c(C)nn(C(C)C)c2C)n1
2. COc1ccccc1N1CCC(NC(=O)c2c(F)cccc2Cl)C1 (stereo not given)
3. Cc1ccccc1C(OC(=O)c1ccc(S(=O)(=O)N(C)C)cc1)C(F)(F)F (stereo not given)
4. CCCCNC(=O)N1CCN(c2cc(Cl)nc(SCC(=O)N3CC4(C)CC3CC(C)(C)C4)n2)CC1C (stereo not given)
5. CCOC(=O)c1sc(=S)n(C)c1N
6. CCOC(=O)c1c(NC(=O)c2ccc(Cl)c([N+](=O)[O-])c2)sc(C(=O)Nc2ccccc2F)c1C
7. Oc1ccccc1/C=N\Nc1cc(N2CCOCC2)nc(N2CCOCC2)n1
8. NC(=O)CSc1ccccc1NC(=O)C1=Cc2cc(Cl)ccc2OC1

assay / compound | 1 | 2 | 3 | 4 | 5 | 6 | 7 | 8
NPYLR7 ag max-min | 5 | -23 | 18 | 3 | 3 | -1 | -9 | -12
NPYLR7 ag | 9 | -21 | 17 | 3 | -2 | -5 | -8 | -8

9. Cc1nc2c(c(N(C)C)n1)CCN(C(=O)c1cccc3[nH]c(C)nc13)C2
10. O=C(Cc1ccc(F)cc1)N(CCCN1CCOCC1)c1nc2c(F)cccc2s1
11. O=C(CC(c1ccccc1)c1ccccc1F)N1CCCO1 (stereo not given)
12. COc1cccc(OCc2nc(C(=O)NCc3cn4c(n3)SCC4)co2)c1
13. O=C(Nc1ccnn1C1CCN(Cc2cc3ccccc3o2)CC1)C1CCCC1
14. COc1ccc(NC(=O)c2ccc3nc(C)c(N(C)C(=O)CCc4ccccc4)n3c2)cc1OC
15. CC1CCC2C(C1)c1sc(=O)[nH]c1SC2(C)C (stereo not given)
16. Cn1cnc(S(=O)(=O)NC2CCCc3ccccc32)c1Cl (stereo not given)

assay / compound | 9 | 10 | 11 | 12 | 13 | 14 | 15 | 16
NPYLR7 ag max-min | 3 | -9 | 2 | 3 | -4 | 14 | 9&-1 | -2
NPYLR7 ag | 4 | -4 | 1 | 6 | -1 | 16 | 9&1 | 0

17. Cc1cc(C)n2c(CCCNC(=O)c3ccc(Cl)c(Cl)c3)nnc2n1
18. CC(=O)Nc1ccc(-c2c(-c3ccccc3)ncn2Cc2ccco2)cc1
19. CCN(CC)c1ccc(CN(C(=O)C(C)C)C(C)C)c(OS(=O)(=O)CC)c1
20. CC(C(=O)Nc1nc(-c2ccc(F)c(F)c2)cs1)N1CCOCC1 (stereo not given)
21. NS(=O)(=O)c1ccc(CNCc2c(F)cccc2Cl)s1
22. CC1=CC2C(=O)c3cccc(O)c3C(O)=C2C(=O)C1 (stereo not given)
23. COCCN(CC(=O)N1CC(=O)N(c2cccc(C)c2)C1)C(=O)c1cccc(C(F)(F)F)c1
24. CCOC(=O)c1c(C)oc2c1cc(OC(=O)c1ccco1)c1ccccc12

assay / compound | 17 | 18 | 19 | 20 | 21 | 22 | 23 | 24
NPYLR7 ag max-min | 1 | -15 | -1 | 2 | 2 | 1 | 22 | -8
NPYLR7 ag | 0 | -4 | -2 | 5 | 3 | 2 | 24 | -6

25. CC(NC(=O)CNC(=O)c1cccc(Cl)c1)c1cccc(C(F)(F)F)c1 (stereo not given)
26. COc1ccc(NC(C)=O)cc1NC(=O)COc1cccc(F)c1
27. COc1ccc(CN(Cc2ccco2)CC(O)Cc2ccccc2)cc1OC (stereo not given)
28. CCCCN(Cc1ccsc1)C(=O)c1c(C)nc2ncccn12
29. CCCCc1ncc(CN2CCc3[nH]cnc3C2c2cnn(C)c2)[nH]1 (stereo not given)
30. CCSc1nnc(NC(=O)/C=C/c2cccc(I)c2)s1
31. O=S(=O)(NCCOc1ccc(-c2ccc(F)cc2)nn1)c1ccc(Cl)s1
32. O=C1C(=O)N(CCCN2CCOCC2)C(c2ccccc2)C1=C(O)c1ccc(Br)cc1 (stereo not given)

assay / compound | 25 | 26 | 27 | 28 | 29 | 30 | 31 | 32
NPYLR7 ag max-min | 1 | 6 | 19 | 2 | 0&-5 | -8 | 7 | 22
NPYLR7 ag | 3 | 12 | 24 | 3 | 5&1 | -1 | 8 | -1

In another format: results already given.
entry	Structure	NPYLR7 ag max-min	NPYLR7 ag
14	COc1ccc(NC(=O)c2ccc3nc(C)c(N(C)C(=O)CCc4ccccc4)n3c2)cc1OC	14	16
15	CC1CCC2C(C1)c1sc(=O)[nH]c1SC2(C)C (stereo not given)	9&-1	9&1
16	Cn1cnc(S(=O)(=O)NC2CCCc3ccccc32)c1Cl (stereo not given)	-2	0
17	Cc1cc(C)n2c(CCCNC(=O)c3ccc(Cl)c(Cl)c3)nnc2n1	1	0
18	CC(=O)Nc1ccc(-c2c(-c3ccccc3)ncn2Cc2ccco2)cc1	-15	-4
19	CCN(CC)c1ccc(CN(C(=O)C(C)C)C(C)C)c(OS(=O)(=O)CC)c1	-1	-2
20	CC(C(=O)Nc1nc(-c2ccc(F)c(F)c2)cs1)N1CCOCC1 (stereo not given)	2	5
21	NS(=O)(=O)c1ccc(CNCc2c(F)cccc2Cl)s1	2	3
22	CC1=CC2C(=O)c3cccc(O)c3C(O)=C2C(=O)C1 (stereo not given)	1	2
23	COCCN(CC(=O)N1CC(=O)N(c2cccc(C)c2)C1)C(=O)c1cccc(C(F)(F)F)c1	22	24
24	CCOC(=O)c1c(C)oc2c1cc(OC(=O)c1ccco1)c1ccccc12	-8	-6
25	CC(NC(=O)CNC(=O)c1cccc(Cl)c1)c1cccc(C(F)(F)F)c1 (stereo not given)	1	3
26	COc1ccc(NC(C)=O)cc1NC(=O)COc1cccc(F)c1	6	12
27	COc1ccc(CN(Cc2ccco2)CC(O)Cc2ccccc2)cc1OC (stereo not given)	19	24
28	CCCCN(Cc1ccsc1)C(=O)c1c(C)nc2ncccn12	2	3
29	CCCCc1ncc(CN2CCc3[nH]cnc3C2c2cnn(C)c2)[nH]1 (stereo not given)	0&-5	5&1
30	CCSc1nnc(NC(=O)/C=C/c2cccc(I)c2)s1	-8	-1
31	O=S(=O)(NCCOc1ccc(-c2ccc(F)cc2)nn1)c1ccc(Cl)s1	7	8
32	O=C1C(=O)N(CCCN2CCOCC2)C(c2ccccc2)C1=C(O)c1ccc(Br)cc1 (stereo not given)	22	-1

Next section
33. O=C(CNCc1ccc2c(c1)OCO2)Nc1cnccn1
34. c1ccc(-c2nc(SCc3ncc(-c4ccccc4)o3)n[nH]2)cc1
35. O=C(c1ccc(CSc2nc3cccc(Cl)c3o2)cc1)N1C2CCC1CC(Oc1ccc3c(c1)OCO3)C2 (stereo not given)
36. NC(=O)c1ccc(N=Nc2c(-c3ccccc3)[nH]n(-c3ccccc3)c2=O)cc1
37. O=C(/C=C/c1cn(S(=O)(=O)c2cccc3ccccc23)c2ccccc12)NCCCN1CCCC1=O
38. COCCNC(=O)c1csc(COc2ccc(Cl)c(C)c2)n1
39. O=C(c1ccco1)N(Cc1csc(COc2cccc3ccccc23)n1)C1CC1
40. CSC(=NS(=O)(=O)c1cccs1)Nc1ccc(SC(F)F)cc1

assay / compound | 33 | 34 | 35 | 36 | 37 | 38 | 39 | 40
NPYLR7 ag max-min | 1 | 1 | -15 | -21 | -10 | -10 | 19 | 2
NPYLR7 ag | 1 | -4 | -14 | -20 | -9 | -1 | 16 | 3

41. O=C(OCC(F)(F)C(F)(F)C(F)(F)C(F)F)C(F)(F)F
42. CC12CCCC(O)(C1)C1CC(C)(C)C1CC2 (stereo not given)
43. Cc1cc(NC(=O)CN2CCc3ccccc3C2)nn1-c1ccccc1
44. CCCCCn1cc(C2CCN(C(=O)c3ccc(Cl)nc3)CC2)c2ccccc21
45. CCc1ccc(CN2CCOc3c(O)cc(-c4cccc(Cl)c4)cc3C2)nc1
46. CCOc1ncccc1C(=O)N1c2ccccc2NC(=O)CC1C (stereo not given)
47. CC(Cn1cncn1)NC(=O)c1coc(CN2CCN(C/C=C/c3ccccc3)CC2)n1 (stereo not given)
48. O=C1COCc2cc(-c3cccc(O)c3)ccc2N1CC1CC1

assay / compound | 41 | 42 | 43 | 44 | 45 | 46 | 47 | 48
NPYLR7 ag max-min | -21 | -13 | -16 | 3 | -4 | 5 | -1 | 4
NPYLR7 ag | -16 | -9 | -9 | 3 | -2 | 8 | 1 | 12

49. COc1ccc(CCN(C)C2CCCN(S(=O)(=O)c3ccccc3)C2)cc1OC (stereo not given)
50. Cc1cc(C(=O)NC(C)c2ccccc2)nc2cc(C(C)(C)C)nn12 (stereo not given)
51. CCOC(=O)C1=C(C)N=c2sc(=CC=Cc3ccco3)c(=O)n2C1c1ccccc1 (stereo not given)
52. O=c1[nH]c2cc3c(cc2nc1N1CCOCC1)OCCO3
53. Nc1nc(N)nc(CSc2nc(-c3ccc(Br)cc3)nc3ccccc23)n1
54. CN(C)S(=O)(=O)c1ccc2oc(SCCOc3ccc(Cl)cc3Cl)nc2c1
55. CCCc1cc(=O)[nH]c2nnc(SCC(=O)OC)n12
56. CNC(=O)[C@@H]1C[C@H](n2cc(CN(C)C(=O)c3ccc4ccccc4c3)nn2)CN1

assay / compound | 49 | 50 | 51 | 52 | 53 | 54 | 55 | 56
NPYLR7 ag max-min | 0 | 15 | -12 | 3 | 15 | 9 | -11 | 1
NPYLR7 ag | 4 | 15 | -6 | 3 | 10 | -7 | -12 | 8

57. Cc1cccc(NC(=O)CSc2ncc(S(=O)(=O)c3ccc(C)cc3C)c(=O)[nH]2)c1
58. COc1cc(-c2nccnc2OC)cc(OC)c1OC
59. CCOC(=O)N1CCN(C(=O)Cc2nnc(-c3cccc(Br)c3)o2)CC1
60. Cc1nnc(SCC(=O)N2CCCC(Nc3ccc(C(C)C)cc3)C2)s1 (stereo not given)
61. O=c1c2ccccc2nnn1CSc1cccc[n+]1[O-]
62. COc1ccc(-c2nc(OC)nn2-c2ccc(NC(=O)c3ccc([N+](=O)[O-])cc3)cc2)cc1
63. c1ccn2c(Sc3nc(CN4CCOCC4)nc4sc5c(c34)CCC5)nnc2c1
64. O=C(CCBr)N1CCN(C(=O)CCBr)CC1

assay / compound | 57 | 58 | 59 | 60 | 61 | 62 | 63 | 64
NPYLR7 ag max-min | -6 | 0 | -10 | 2&5 | 0 | 11 | 0 | -22
NPYLR7 ag | 0 | 6 | -8 | 7&5 | 5 | 10 | 0 | -23

65. CC(=O)C(C)n1c(CN2CCN(c3cccc(Cl)c3)CC2)nc2c1c(=O)n(C)c(=O)n2C (stereo not given)
66. CN(c1ccccc1)S(=O)(=O)c1ccccc1
67. CCc1cnc(C)nc1N1CCN(c2ncccc2C)CC1
68. O=C(Nc1ccc2[nH]cc(CCN3CCCC3)c2c1)c1ccc(N=Nc2ccccc2)cc1
69. O=C(c1ccncc1)N1Cc2cnn(Cc3ccc(F)cc3)c2C1
70. COc1cccnc1-c1c(C)cc(C)cc1C
71. CCNC(=O)N1CCN(C(=O)Cc2cccc(Cl)c2)CC1
72. C[C@@H]1[C@H]2C[C@@H](C[C@H]1NC(=O)C1CC=CCC1C(=O)N1CCN(c3ccccn3)CC1)C2(C)C (stereo not given in full)

assay / compound | 65 | 66 | 67 | 68 | 69 | 70 | 71 | 72
NPYLR7 ag max-min | 14 | 37 | 1 | 6 | -2 | 12 | 1 | -19
NPYLR7 ag | 2 | 40 | 0 | 1 | 2 | 5 | 5 | -12

73. O=C1CC(c2nc(COc3ccc(Cl)cc3Cl)no2)CCN1 (stereo not given)
74. Cc1c(Cl)cccc1-n1ccnc1SC(C)C(=O)N1CCNC1=O (stereo not given)
75. Cc1ccc(NC(=O)CSc2nccn3nc(-c4cccc5ccccc45)cc23)cc1
76. O=c1c2cnc3nc(C(F)(F)F)nn3c2ccn1-c1cccc(Cl)c1
77. Cc1cc(NC(=O)Cn2cnc3c(nnn3-c3cccc(F)c3)c2=O)no1
78. CN(C(=O)Cn1nnnc1CN1CCOCC1)C1CCCc2ccccc21 (stereo not given)
79. Cc1ccccc1C(=O)N1CCC2(CC1)OCc1cc(-c3cccc(F)c3)ccc1O2
80. Cn1c(C(=O)NCC2CCS(=O)(=O)C2)cc(Cl)c1Cl (stereo not given)

assay / compound | 73 | 74 | 75 | 76 | 77 | 78 | 79 | 80
NPYLR7 ag max-min | 0 | 9 | -1 | 3 | -9 | -4 | -6 | 5
NPYLR7 ag | 2 | 1 | -1 | 0 | -6 | -1 | -2 | 5

81. O=C(c1cccc(OC2CCN(Cc3ccc(F)cc3Cl)CC2)c1)N1CCCC1
82. COc1ccc(N2CCN(c3ncnc4c3cnn4CCNC(=O)CC(C)C)CC2)cc1
83. O=C(CCc1cccc(Cl)c1)NC1CCCN(CCc2ccccc2)C1 (stereo not given)
84. Cc1cc(C)c(NC(=O)CN2CCN(CC(=O)NC3CC3)CC2)c(Cl)c1
85. O=C(NS(=O)(=O)N1CCc2sccc2C1)c1ccoc1
86. CCc1c(C)nc(-n2nc(C)cc2C)n(CC(=O)Nc2cccc(C)c2C)c1=O
87. CCCCN(CC(=O)N(CCc1ccc(OC)c(OC)c1)Cc1cccs1)C(=O)c1ccccc1C
88. CC(C)c1nnsc1CNC(=O)C(C)(C)NC(=O)c1cccs1

assay / compound | 81 | 82 | 83 | 84 | 85 | 86 | 87 | 88
NPYLR7 ag max-min | 12 | -5 | 4 | 13 | -9 | -2 | 3 | 5
NPYLR7 ag | 14 | -4 | 8 | 9 | -3 | 2 | -6 | 8

89. CCOC(=O)c1ccc2c(c1)nc(SCc1ccccc1OC)n2Cc1ccccn1
90. C=CCN(Cc1nccn1Cc1ccc(C(F)(F)F)cc1)C(=O)c1ccco1
91. O=C(Nc1ccc2c(c1)CCC2)C1CCN(C(=O)c2ccco2)CC1
92. CCC(C)NC(=O)C(C)NC(=O)Nc1ccc(OC(C)C)cc1F (stereo not given)
93. Brc1ccc(NC2=NCCCCCC2)cc1
94. CC(C)c1ccc(NC(=O)c2ccc(S(C)(=O)=O)o2)c(C(C)C)c1

assay / compound | 89 | 90 | 91 | 92 | 93 | 94
NPYLR7 ag max-min | 7 | 37 | -3 | 8 | 14 | 20
NPYLR7 ag | 10 | 34 | -1 | 9 | 21 | 0
